Assay outcomes as filed in PubChem.
Lassa entry inh = qHTS for Inhibitors of binding or entry into cells for Lassa Virus | Potency, µM (doses to about 37.9 µM), for inactives: top-dose activity change, negative = inhibition, hits mostly inhibitors | Lassa virus pseudotype entry inhibition, cell reporter; control for the full effect not named in the record | AID 540256, 2011 | hit rate 1.2% among 300,000; active means well fitted inhibition curve with a large enough effect; inconclusive means small, poorly fitted or top-dose-only effect, or effect the other way; inactive means flat fitted curve, though single readings scatter; tested in HEK293 cells; further: on the % scale 0 is the no-effect control and ±100 the full control effect; nearly all actives have a fitted effect of over 50% in size; luciferase read-out
NS1 function inh = qHTS Assay for Inhibitors of Influenza NS1 Protein Function; hit rate 0.4% among 270,000; Potency, µM (titrated, usually from 46.1 µM), for the others: at the top dose activity, positive = more growth; S. cerevisiae slowed by influenza A NS1, growth recovery by OD600; further: actives are rising curves; nearly all actives have a fitted effect of over 50% in size
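In this qHTS, NS1 from influenza A is expressed in budding yeast, where it slows growth. Cells are switched from glucose to 2% galactose medium (pH 6.0, -URA), treated with compound, and growth recovery is read at OD600.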
Marburg entry inh = qHTS for inhibitors of binding or entry into cells for Marburg Virus; Marburg virus pseudotyped entry inhibition, cell reporter; control for the full effect not named in the record; about a third of the inactives were read at about 46 µM; Potency, µM (doses to about 37.8 µM), without a hit: at the highest dose activity change, negative = inhibition, usual class: inhibitors; hit rate 1.8% among 300,000; AID 540276, 2011; active = well fitted inhibition curve with a large enough effect; inconclusive = small, poorly fitted or top-dose-only effect, or effect the other way; inactive = flat fitted curve, though single readings scatter; tested in HEK293 cells; about a fifth of its hits are not listed in these tables; further: on the % scale 0 is the no-effect control and ±100 the full control effect; luciferase read-out
SARS PLpro yeast = qHTS of Yeast-based Assay for SARS-CoV PLP. S. cerevisiae expressing SARS-CoV PLpro, growth rescue; control for the full effect not named in the record. Potency, µM (highest dose often 32.9 µM), for inactives: at the top dose activity, positive = growth rescue. hit rate 0.19% among 330,000. AID 485353, 2010; further: 0% is about no effect; nearly all actives have a fitted effect of over 55% in size; growth read by luminescence after 48 h
Cruzain inh Det = qHTS Assay for Promiscuous and Specific Inhibitors of Cruzain (with detergent); Cruzipain (Trypanosoma cruzi), P25779; purified cruzain, Z-FR-AMC fluorescence, 0.01% Triton; Potency, µM, inactives show max response, negative = inhibition, usual class: inhibitors; hit rate 0.43% among 200,000; AID 1478, 2009; active means well fitted curve in the direction sought with a large enough effect; inconclusive means small, poorly fitted or top-dose-only effect, or another doubt; inactive means no such curve, though single readings can be large; an effect the other way counts as inactive or inconclusive;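 further: plate controls were neutral wells for no effect and buffer without enzyme for full effect; nearly all actives have a fitted effect of over 40% in size; top concentration of the series not given in the record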
Target sequence (P25779 123-467 limits assumed): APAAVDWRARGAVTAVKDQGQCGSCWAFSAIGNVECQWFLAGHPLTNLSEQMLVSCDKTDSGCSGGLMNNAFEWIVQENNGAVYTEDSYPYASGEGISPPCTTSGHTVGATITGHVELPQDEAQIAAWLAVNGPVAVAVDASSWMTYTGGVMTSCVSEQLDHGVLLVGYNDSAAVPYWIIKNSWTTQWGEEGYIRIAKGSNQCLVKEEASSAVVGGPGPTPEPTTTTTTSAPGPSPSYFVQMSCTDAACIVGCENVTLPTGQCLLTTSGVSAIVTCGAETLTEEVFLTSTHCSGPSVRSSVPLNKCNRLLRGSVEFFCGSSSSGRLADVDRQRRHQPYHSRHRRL
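Read-out: AMC fluorescence (360 nm excitation, 450 nm emission), four reads over 2 min, first-to-third difference used. Conditions: cruzain 1.5 nM, Z-FR-AMC 2 uM, pH 5.5 acetate, 5 mM DTT, 0.01% Triton X-100.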
Cruzain inh noDet = qHTS Assay for Promiscuous and Specific Inhibitors of Cruzain (without detergent). purified cruzain, Z-FR-AMC fluorescence, no detergent. Potency, µM, for the others: max response, negative = inhibition, most hits filed as inhibitors. hit rate 2.3% among 200,000. AID 1476, 2009; active means well fitted curve in the direction sought with a large enough effect; inconclusive means small, poorly fitted or top-dose-only effect, or another doubt; inactive means no such curve, though single readings can be large; an effect the other way counts as inactive or inconclusive;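 further: plate controls were enzyme without inhibitor for no effect and buffer without enzyme for full effect; nearly all actives have a fitted effect of over 40% in size; top concentration of the series not given in the record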
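Purified cruzain at 1.5 nM, pre-incubated 15 min with compound at room temperature in 100 mM sodium acetate pH 5.5, 5 mM DTT, 0.00005% Triton X-100. Reaction started with 2 uM Z-FR-AMC; AMC fluorescence increase over 60 s gives rate.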
2A StopGo = High Throughput Screening for Foot and Mouth Disease Virus Antivirals; human cells with a luciferase reporter of 2A StopGo recoding; control for the full effect not named in the record; Potency, µM (series often up to 57.9 µM), for inactives: at the highest dose signal change, negative = less light; hit rate 1.2% among 410,000; AID 1159524, 2015; active = well fitted falling curve with a large enough effect; inconclusive = small, poorly fitted or top-dose-only effect; inactive = no such curve, though single readings can be large or run the other way; tested in HEK293T cells; further: on the % scale 0 is the no-effect control and ±100 the full control effect; nearly all actives have a fitted effect of over 45% in size; luciferase light after 4 h
RE007 growth inh = qHTS Assay for Inhibitors of the HIV-1 protein Vpr | S. pombe RE007 Vpr strain, BacTiter-Glo ATP luminescence, 24 h; control for the full effect not named in the record | Potency, µM (doses to about 92.2 µM), without a hit: at the highest dose activity change, negative = less growth | hit rate 0.21% among 360,000 | AID 651644, 2012; active = well fitted falling curve with a large enough effect; inconclusive = small, poorly fitted or top-dose-only effect; inactive = no such curve, though single readings can be large or run the other way;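 further: on the % scale 0 is the no-effect control and ±100 the full control effect; nearly all actives have a fitted effect of over 50% in size; the assay follows cell death caused by Vpr and the record does not say whether a fall means rescue or toxicity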
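Fission yeast strain RE007, carrying one chromosomally integrated HIV-1 vpr copy, was seeded at OD 0.01 in PMG+AL medium with 23 nL pinned compound. After 24 h at 30 °C and 99% humidity, viability was read by BacTiter-Glo luminescence.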
* = called active by the depositor; ? = inconclusive; · = no result given; & = joins results of further samples; [ ] = remark or other dose. Unless noted, the call rests on the fitted dose curve; in most records, active means well fitted rising curve with a large enough effect; inconclusive means small, poorly fitted or top-dose-only effect; inactive means no such curve, though single readings can be large or run the other way. Potency means the concentration at half of the fitted maximal effect.

The line under a structure holds: Lassa entry inh, NS1 function inh, Marburg entry inh, SARS PLpro yeast, Cruzain inh Det, Cruzain inh noDet, 2A StopGo, RE007 growth inh
CC(NC(=O)c1cc([N+](=O)[O-])cc([N+](=O)[O-])c1)c1ccc(-n2ccnc2)cc1 (configuration not stated)
→ -11%, ?, -11%, 2%, ·, ·, -27%, -14%
Cc1ccc(C)c(NC(=O)Cn2c(=O)n(CCC(=O)NCc3ccc4c(c3)OCO4)c(=O)c3ccccc32)c1
→ -2%[46.1 µM], ·, -7%[46.1 µM], ·, -2.2%, -6%, 13%, ·
O=C(CSc1nc(-c2cccs2)cc(C(F)(F)F)n1)NCCCN1CCOCC1
→ 6%, 0%, 19%[46.1 µM], 1%, ·, ·, -17%, 8%
Cc1ccc(Oc2nc3c(c(=O)n(Cc4ccccc4F)c(=O)n3C)n2C)cc1
→ -9%, -5%, ?, 1%, 0.3%, -5%, 20µM*, -14%
COc1ccc(C(=O)c2sc(Nc3ccccc3)nc2C)cc1
→ -10%, -32%, ?, -4%, ·, ·, 16%, -15%
CC(=O)Nc1cccc(C(=O)N2CCC(n3nccc3NC(=O)CC(C)C)CC2)c1
→ -1%, 8%, 0%, -2%, ·, ·, ?, 19%
Cn1c(=O)[nH]c(=O)c2c1nc1n2CCCS1
→ 0%, -17%, 23%, 1%, 6.1%, 4%, 4%, 10%
O=C(COC(=O)CCOc1ccccc1)NCCC1=CCCCC1
→ 1%[46.1 µM], ·, -1%[46.1 µM], -7%, ·, ·, -24%, 7%
COCCn1c(=O)c2c(nc3n2CC(C)CN3Cc2ccccc2)n(C)c1=O (configuration not stated)
→ 6%[46.1 µM], -13%, 8%[46.1 µM], 10%, ·, ·, 1%, -3%
Cc1onc(-c2ccccc2Cl)c1C(=O)Nc1sc2c(c1C(N)=O)CCC(C)C2 (configuration not stated)
→ ?, -4%, 19%, -52%, -15%, ?, 3%, 2%
CC1CCN(c2c(NCC3CCC(C(=O)NCc4ccc(F)cc4)CC3)c(=O)c2=O)CC1 (configuration not stated)
→ ·, -4%, ·, -3%, ·, ·, -7%, -12%
Cc1nc(N2CCCC2)ncc1C(=O)NCc1ccc(F)cc1
→ -17%[46.1 µM], ·, ·, ·, -0.9%, -8%, 10%, ·
COc1ccc(CC(NC(C)=O)C(=O)NC2CCN(C(=O)C3CCCCC3)CC2)c(OC)c1 (configuration not stated)
→ 22%[46.1 µM], -4%, -6%[46.1 µM], -11%, ·, ·, -4%, -3%
CCN(CC)C(=O)Cn1cc(SCC(=O)Nc2ccccc2F)c2ccccc21
→ ?, ·, ·, ·, -0.4%, 22%, -20%, ·
Cn1c(=O)c2c(nc(Oc3ccccc3N)n2C)n(C)c1=O
→ ·, -77%, ·, -11%, ·, ·, 19%, -10%
O=C(CSc1nc2ccccc2s1)N1CCN(C(=O)c2ccco2)CC1
→ -14%, 3%, -5%, -12%, -5.7%, -19%, ?, 5%
Cc1ccc(C(=O)Nc2ccc3c(c2)OCO3)cc1S(=O)(=O)N1CCCC1
→ -1%, -34%, -5%, 1%, -1.9%, -1%, -6%, 14%
O=C(Nc1ccc(Br)cc1)c1cnc[nH]1
→ ·, 2%, ·, -2%, ·, ·, 58%[activator], 17%
CCOc1ccccc1CNC(=O)CCc1cn(Cc2ccc(Cl)cc2)c2ccccc12
→ -14%[46.1 µM], ·, ·, ·, -3.2%, -25%, -21%, ·
C#CCN1C(C)=C(C(=O)OC)C(c2cccc([N+](=O)[O-])c2)C(C(=O)OCC)=C1C (configuration not stated)
→ ?, -44%, 14µM*, ·, -11%, 11%, -20%, -8%[18.4 µM]

Whole records, looked up by structure. Order of values: Lassa entry inh	NS1 function inh	Marburg entry inh	SARS PLpro yeast	Cruzain inh Det	Cruzain inh noDet	2A StopGo	RE007 growth inh
O=C(Nc1ccc(Br)cc1)c1cnc[nH]1 is entered as ·	2%	·	-2%	·	·	58%[activator]	17%
CC(=O)Nc1cccc(C(=O)N2CCC(n3nccc3NC(=O)CC(C)C)CC2)c1 is entered as -1%	8%	0%	-2%	·	·	?	19%
O=C(CSc1nc2ccccc2s1)N1CCN(C(=O)c2ccco2)CC1 is entered as -14%	3%	-5%	-12%	-5.7%	-19%	?	5%
Cc1ccc(Oc2nc3c(c(=O)n(Cc4ccccc4F)c(=O)n3C)n2C)cc1 is entered as -9%	-5%	?	1%	0.3%	-5%	20µM*	-14%

Other compounds follow.
The line under a structure holds: Lassa entry inh, NS1 function inh, Marburg entry inh, SARS PLpro yeast, Cruzain inh Det, Cruzain inh noDet, 2A StopGo, RE007 growth inh
COc1cc(C(=O)NCc2nnc(SCC(=O)N3CCCCCC3)o2)cc(OC)c1OC
→ 32%[46.1 µM], -1%, ?, 1%, ·, ·, 6%, 11%
CC(=O)c1sc(NC(=O)c2ccc3c(c2)OCO3)nc1C
→ ?, -7%, ?, 2%, ·, ·, 4%, -1%
CCOc1ccc2nc(N3CCC(C(=O)NC4CCCCC4)CC3)sc2c1
→ ·, 3%, ·, ?, ·, ·, 1%, 5%
CN(C(=O)COC(=O)CCC(=O)c1ccc(F)cc1)C1CCCCC1
→ -5%[46.1 µM], ·, 2%[46.1 µM], 12%, ·, ·, -10%, 11%
O=C(Nc1ccccc1F)C1COc2ccccc2O1 (configuration not stated)
→ ·, -13%, ·, 4%, ·, ·, 72%[activator], -12%
CCCCn1nnnc1NCc1cc(Cl)c(OC)c(OC)c1
→ ·, 1%, ·, 0%, ·, ·, 18%, 1%
CN(C)/C=c1\sc2c(C#N)cc(C(=O)c3ccc(Br)cc3)n2c1=O
→ 7%, 13%, -2%&0%, 0%, -16%, -11%, -10%, 18%
Cc1noc2ncnc(NCc3ccc(Cl)cc3)c12
→ 1%[46.1 µM], ·, ·, ·, -6.5%, -8%, ?, ·
Cc1cc(C(=O)OCC(=O)Nc2cccc(S(=O)(=O)N3CCOCC3)c2)c(C)o1
→ 0%, -4%, -6%, 5%, 0.5%, -2%, -16%, -9%
Cc1cc(NC(=O)CSc2nnc(-c3ccc(Cl)s3)o2)no1
→ -11%, 8%, -20%, -2%, 2.1%, -7%, -15%, -4%
COc1ccc(CN2C(=O)NC(=O)/C(=C/c3cc(OC)c(OC)c(OC)c3)C2=O)cc1
→ -5%, 9%, -5%[46.1 µM], -1%, ·, ·, ?, 5%
CCOC(=O)CSc1nc(-c2ccccc2)nc2ccccc12
→ ?, -12%, -16%, -3%, -1.2%, -10%, 1%, 5%
CC(NC(=O)OCc1ccccc1)c1ccccc1 (configuration not stated)
→ 4%, ·, 8%, ·, ·, ·, 7%, -3%
CCn1c(SCC(=O)c2ccc3ccccc3c2)nnc1-c1cccs1
→ 3%, 3%, 9%, -2%, -7.3%, -30%, 0%, 12%
CCOC(=O)C1=C(C)Nc2nc(C)nn2C1c1cc(OC)ccc1OC (configuration not stated)
→ 7%, -6%, -11%, -3%, 0.0%, 7%, -26%, 1%
Cn1c(CNc2nc(-c3ccccc3)cs2)nnc1SCC(=O)OC1CCCCC1
→ -2%, -10%, -9%, 7%, -22%, -27%, -23%, 0%
Cc1ccc(Cn2c(Cc3ccccc3)nc3ccccc32)cc1
→ 0%[46.1 µM], -40%, ?, -10%, -9.5%&-5.8%, 2%&-7%, ?, -14%
NC(=O)c1ccc(NC(=O)CN2C(=O)NC3(CCCCCCC3)C2=O)cc1
→ 14%[46.1 µM], ·, 5%[46.1 µM], 0%, ·, ·, -3%, -5%
Cc1cc(/C=C(\C#N)C(=O)NCc2ccccc2)cc(C)c1O
→ -26%[46.1 µM], 3%, -6%[46.1 µM], -1%, ·, ·, 21%, 1%
O=C(O)CCCCCn1c(SCc2cc(=O)n3ccccc3n2)nc2ccsc2c1=O
→ 8%&-2%, 3%, -11%&-16%, 19%, -10%, 7%, -19%, -7%
Cc1nn(-c2ccc(N3CCCCC3)nn2)c(C)c1CCC(=O)NCc1ccccc1F
→ 18%[46.1 µM], ·, ·, ·, -1.2%, -5%, 9%, ·
CCC(=O)Nc1ccccc1C(=O)OC(c1ccccc1)c1ccccc1
→ -27%, -4%, -29%, 5%, -3.7%, 9%, -18%, -1%
N#CC1=C(N)C(C#N)(C#N)C2(CCC3(CC2)OCCO3)C2CC3(CC=C12)OCCO3 (configuration not stated)
→ 33%[14.3 µM], -11%, 8%, 1%, 2.5%, 6%, 24%, 15%
Cc1ccc(CN2C(=O)CSc3ccc(C(=O)NC4CC4)cc32)cc1
→ -2%[46.1 µM], 12%, -17%[46.1 µM], -1%, ·, ·, 5%, -22%
CCCC(=O)c1cc(F)c(N2CCN(S(=O)(=O)c3ccccc3)CC2)cc1C
→ ?, -7%, ?, 5%, -0.9%, 3%, ·, -21%
Cc1cc2c(cc1C)CSC(c1c(O)ccc3ccccc13)SC2
→ ?, -31%, ?, -54%, 3.1%, ?, ?, ?
Cc1ccc(-c2nc3ccccc3s2)cc1S(=O)(=O)N1CCOCC1
→ -13%, -1%, ?, 12%, -6.9%, ?, 15%, 9%
O=C(O)C1CCCCC1C(=O)NCCC(c1ccccc1)c1ccccc1 (configuration not stated)
→ -11%, 6%, 12%, -9%, -4.3%, -2%, -24%, -7%[3.69 µM]
O=C(CN(Cc1ccc(Br)cc1)S(=O)(=O)c1ccccc1)NCc1ccccn1
→ 0%, -17%, 23%, 1%, ·, ·, -12%, 16%
COc1ccc(-c2c(C)nn3c(N4CCC5(CC4)OCCO5)cc(C)nc23)cc1OC
→ ?, -16%, -11%[46.1 µM], 2%, 3.0%, ?, ?, -18%
COC(=O)C1=C(C)Nc2[nH]c(=S)[nH]c(=O)c2C1c1ccc(OC)cc1 (configuration not stated)
→ 18%, 12%, ?, 1%, ·, ·, -21%, 3%
COc1cc(OC)cc(-n2nnnc2SCC(=O)NCCc2ccc(OC)c(OC)c2)c1
→ ·, -4%, ·, -1%, ·, ·, -14%, 6%
